High-throughput results deposited in PubChem BioAssay by National Center for Advancing Translational Sciences (NCATS).
VACV mCherry inh: vaccinia inhibition (mCherry reporter) | Potency, µM (series often up to 36.5 µM), inactives show at the highest dose activity change, negative = inhibition, usual class: inhibitors | Vaccinia virus mCherry reporter infection, fluorescence; about a quarter of the inactives have no number | hit rate 0.63% among 310,000; active = well fitted inhibition curve with a large enough effect; inconclusive = small, poorly fitted or top-dose-only effect; inactive = no such curve, though single readings can be large or run the other way; tested in A549 cells; also: nearly all actives have a fitted effect of over 35% in size; inactives centre near -10
Vaccinia Venus: vaccinia inhibition (Venus reporter) | Vaccinia virus Venus reporter expression, fluorescence | Potency, µM (series often up to 36.5 µM), without a hit: at the highest dose activity change, negative = inhibition, most hits filed as inhibitors | hit rate 0.46% among 330,000; active means well fitted inhibition curve with a large enough effect; inconclusive means small, poorly fitted or top-dose-only effect; inactive means no such curve, though single readings can be large or run the other way; tested in A549 cells; also: nearly all actives have a fitted effect of over 30% in size; inactives centre near -10
The depositor's hits bear a star; i = inactive; ? = inconclusive; . = no result given; [ ] = dose if it differs, or a comment. % is scaled to controls: 0 for no effect and ±100 for the full control effect; potency is read from the fitted curve at half-maximal effect.

Values run as follows: VACV mCherry inh | Vaccinia Venus
> COc1ccc2cc3cc(C(=O)N4CCN(c5cccc(Cl)c5)CC4)sc3nc2c1
  -3.5% | 0.0%
> O=S(=O)(CS(=O)(=O)c1ccc(Cl)cc1)c1ccc(Cl)cc1
  i | -3.8%
> CCOc1cccc2cc(C(=O)Nc3cc(C)on3)c(=O)oc12
  -12.5% | -5.6%
> CN(C)S(=O)(=O)Oc1ccsc1C(=O)Nc1cccc(Cl)c1Cl
  i | -15.4%
> CCCc1cc(-c2n[nH]c(=S)n2CC)c2ccccc2n1
  i | -3.6%
> COC(=O)NCc1c(C)nn(-c2ccccc2)c1-n1cccc1
  -10.1% | -16.0%
> O=C(NCCC1=CCCCC1)c1ccc2c(c1)N(Cc1ccccc1)C(=O)c1ccccc1S2=O (stereo not drawn)
  -15.8% | -24.9%
> O=C(NNc1cc(N2CCCC2)nc(N2CCCC2)n1)c1ccc([N+](=O)[O-])cc1
  -8.2% | -1.2%
> NS(=O)(=O)c1ccc(CNC(=O)CCS(=O)(=O)Cc2ccccc2)cc1
  -9.8% | -5.6%
> O=C(CNc1ccccc1)N/N=C/c1cn(-c2ccccc2)nc1-c1ccccc1
  i | -7.2%

(further entries)
Values run as follows: VACV mCherry inh | Vaccinia Venus
> CC(=O)Nc1cccc(NC(=O)CSc2nnc(NC(=O)c3ccco3)s2)c1
  i | -7.7%
> Cc1c(C(=O)NN2CCOCC2)oc2c1ccc1ccccc12
  -17.1% | -10.8%
> CCOc1ccc(-c2cc(CCCC(=O)NCc3cccnc3)no2)cc1
  i | -16.4%
> Cc1ccc2c(c1)c1c(n2CC(O)CN2CCCCC2C)CCCC1 (stereo not drawn)
  ? | -25.8%
> COc1ccc(NC(=O)CN2CCN(S(=O)(=O)c3ccc(Br)cc3)CC2)cc1
  -10.7% | -6.6%
> O=C(N/N=C\c1ccc(COc2ccc([N+](=O)[O-])cc2)o1)c1cccc(Cl)c1
  ? | -21.6%
> Cc1ccc(C#N)c(SCc2ccccc2F)n1
  i | -3.2%
> Cc1oc2c(c1C(=O)NCc1ccccc1F)C1=NCCN1C=N2
  -14.2% | -12.5%
> O=C(NCc1ccco1)c1cc2sccc2n1Cc1ccccc1
  -19.2% | -12.2%
> CCOC(=O)c1nnc(-c2ccccc2)nc1N1CCSCC1
  i | -2.9%

Continuation:
Values run as follows: VACV mCherry inh | Vaccinia Venus
> Cc1ccc(CCNC(=O)C2CCCN(S(=O)(=O)c3cccs3)C2)cc1 (stereo not drawn)
  -10.8% | -12.6%
> CC(C)n1c(SCC(=O)Nc2ccc(N3CCOCC3)cc2)nnc1-c1ccco1
  -8.6% | -2.4%
> O=C(O)CN=C1CC(c2ccccc2)CC(=O)/C1=C(/O)CCCN1C(=O)c2ccccc2C1=O (stereo not drawn)
  -5.3% | -13.0%
> CC(C)CCNC(=O)Cc1csc(-c2ccccc2)n1
  i | 0.2%
> O=C(Nc1ccc(F)cc1)c1ccc(-n2cncn2)c([N+](=O)[O-])c1
  -9.9% | -20.1%
> COC(=O)[C@]12CCCCC=C1N(Cc1ccc3c(c1)OCO3)C(=O)[C@H](CC(=O)NCC13CC4CC(CC(C4)C1)C3)C2
  ? | ?
> CC1=C(C(=O)NCc2ccc(Cl)cc2)C2(CCCCCC2)OC1=O
  i | -14.3%
> OCCN(CC#CC(O)(c1ccccc1)c1cccc(F)c1)CCO (stereo not drawn)
  -7.7% | 2.6%
> COc1ccc(N2C(=O)NC(=O)/C(=C/c3cccc(OC(=O)c4cccs4)c3)C2=O)cc1Cl
  -13.9% | -5.0%
> C=CCNC(=O)C1CC1(c1ccccc1)c1ccccc1 (stereo not drawn)
  -21.9% | -2.5%

New compounds follow.
Values run as follows: VACV mCherry inh | Vaccinia Venus
> CCCCn1c(N)c(N(CC(C)C)C(=O)C2CCN(c3ncnc4sc(C)c(C)c34)CC2)c(=O)[nH]c1=O
  -20.4% | -13.2%
> CCOc1cc(/C=C2/NC(=O)N(CC(=O)Nc3cccc(C)c3)C2=O)ccc1O
  ? | ?
> CCC(C)Sc1cccc(-c2nc3cc(C)ccn3c2NCc2ccccc2)c1 (stereo not drawn)
  -16.2% | -27.8%
> O=C(Nc1ccc(F)cc1)N(CCCN1CCOCC1)Cc1cc2cc3c(cc2[nH]c1=O)OCO3
  -21.2% | -11.9%
> O=S1(=O)CCO[C@H]2CCCC[C@@H]2N1Cc1ccccc1
  i | -6.8%
> S=C(NCc1ccccc1)N1CCN(Cc2ccc3c(c2)OCO3)CC1
  -6.0% | -13.6%
> COc1ccccc1CNC(=O)c1ccc(OCC2CCCO2)cc1 (stereo not drawn)
  i | -14.0%
> CC1=CC2(C)NC(=O)C(C)C12 (stereo not drawn)
  i | 1.7%
> O=S(=O)(c1ccc(F)c(F)c1)N1CCN(c2ncccn2)CC1
  -0.7% | -7.7%
> CCCCNCc1cc2ccccc2o1
  -10.1% | -4.5%

Next results follow:
Values run as follows: VACV mCherry inh | Vaccinia Venus
> COC(=O)c1cc(NS(=O)(=O)c2ccc(NCc3cccnc3)c([N+](=O)[O-])c2)cc(C(=O)OC)c1
  i | -5.1%
> COc1ccc(/C=N/NC(=O)c2ccc(Cl)cc2)cc1COC(C)=O
  -16.1% | -3.7%
> COc1ccc2nc(N3C(=O)/C(=C/c4ccc(Cl)cc4)NC3=S)sc2c1
  -13.3% | 21.1%
> CCCCN(C(=O)C1CC(=O)N(CCc2ccc(OC)c(OC)c2)C1)c1c(N)n(CCCC)c(=O)[nH]c1=O (stereo not drawn)
  i | -14.1%
> COc1ccc(S(=O)(=O)NC(=O)C2(C)CCN2C(=O)COc2ccc(Cl)cc2)cc1 (stereo not drawn)
  -5.1% | -2.0%
> NNc1cc([N+](=O)[O-])cc2c1C(=O)N(Cc1ccccc1)S2=O (stereo not drawn)
  i | -15.5%
> COc1ccc(C(=O)C2CCCN(Cc3cccc(C)n3)C2)c(OC)c1 (stereo not drawn)
  -9.8% | -8.9%
> Cc1ccc(SCCNC(=O)C(C)C)cc1
  i | -1.8%
> CCOC(=O)Cc1csc(NC(=O)CSc2ccc(Br)cc2)n1
  -22.5% | -10.8%
> COC(=O)c1ccc(CSc2nc3sc4c(c3c(=O)n2C)CCCC4)o1
  i | -5.5%

Next section:
Values run as follows: VACV mCherry inh | Vaccinia Venus
> COc1cc(C2/C(=C(\O)c3cc(C)ccc3C)C(=O)C(=O)N2CCN(C)C)ccc1O (stereo not drawn)
  -12.2% | -11.8%
> O=C(CN1C(=O)/C(=C2\SC(=S)N(C3CCS(=O)(=O)C3)C2=O)c2ccccc21)Nc1ccc(F)cc1 (stereo not drawn)
  -26.5% | -8.6%
> CCOc1cc(C(=O)NCCc2csc3nc(-c4ccccc4F)nn23)cc(OCC)c1OCC
  -2.9% | -17.4%
> Cc1ccc2nc(-c3ccco3)c(Nc3ccc4c(c3)OCCO4)n2c1
  -11.3% | -4.6%
> CCn1c(=NC(=O)c2cccc(N3C(=O)CCC3=O)c2)sc2c(C)ccc(OC)c21
  2.8% | -10.6%
> N#CCSc1nnc(Cc2cccc3ccccc23)n1C1CCCCC1
  -20.2% | -15.9%
> COc1ccc(NC(=O)N(C)C[C@H]2Oc3ccc(NS(=O)(=O)c4ccc(F)cc4)cc3C(=O)N([C@H](C)CO)C[C@@H]2C)cc1
  i | -0.9%
> CCc1nc2ccccc2c(C(=O)OCC(=O)C(C)(C)C)c1C
  -15.3% | -1.6%
> O=C(NCCn1cc(SCc2ccc(F)cc2)c2ccccc21)c1ccccc1F
  ? | -8.7%
> Cc1c(C)n(Cc2ccccc2)c2ncnc(NCCN(C)C)c12
  -8.1% | -14.6%

Brought forward from above: 2 compounds, followed by the next part.
Values run as follows: VACV mCherry inh | Vaccinia Venus
> O=C(NCCn1cc(SCc2ccc(F)cc2)c2ccccc21)c1ccccc1F
  ? | -8.7%
> Cc1c(C)n(Cc2ccccc2)c2ncnc(NCCN(C)C)c12
  -8.1% | -14.6%
> Cc1cc(C)c2[nH]c(=O)c(CN(CC3CCCO3)C(=O)C3CCCO3)cc2c1 (stereo not drawn)
  . | -4.1%
> COc1ccc(CCNC2CC(=O)N(N(C)C)C2=O)cc1OC (stereo not drawn)
  i | -15.0%
> CCC(CC)C(=O)Nc1ccc2nc(SCC(=O)N3c4ccccc4CC3C)sc2c1 (stereo not drawn)
  -14.9% | -2.3%
> Fc1cccc(-n2ncc3c2ncn2nc(COc4ccc(Cl)cc4)nc32)c1
  -8.5% | -3.4%
> Cc1ccccc1NC(=S)N(Cc1cccnc1)Cc1ccccc1Cl
  -7.3% | -1.9%
> COc1ccc(S(=O)(=O)NC(C(=O)NCCc2ccccn2)C(C)C)cc1 (stereo not drawn)
  -11.5% | -3.5%
> Cc1ccccc1-c1nnc(SCC(=O)N(C)c2ccccc2)o1
  -1.2% | -1.1%
> Nc1ccc(C(=O)OCCc2ccccc2)cc1
  -10.2% | -9.4%
> COc1ccc(Nc2cc(C(=O)NCCCN(C)Cc3ccccc3)c3ccccc3n2)cc1OC
  -29.3% | -21.1%
> O=C(NCC(c1ccco1)N1CCCCC1)C(c1ccccc1)c1ccccc1 (stereo not drawn)
  -8.2% | -17.2%

Next results
Values run as follows: VACV mCherry inh | Vaccinia Venus
> NC(=O)CSc1nccn1Cc1ccc(Cl)cc1
  -5.7% | -2.7%
> CN(C(=O)c1cnc(N2CCN(c3ncccn3)CC2)c2ccccc12)c1ccc(Cl)cc1
  -16.4% | -5.4%
> Cc1cc(C)c(NC2=NS(=O)(=O)c3ccccc32)c(C)c1
  -19.8% | -14.0%
> COC(=O)Cc1ccc(NC(=O)c2ccc3c(c2)C(=O)N(CC2CCCO2)C3=O)cc1 (stereo not drawn)
  i | -3.7%
> COc1ccc(S(=O)(=O)N(CC(=O)N2CCN(C)CC2)C2CCCCC2)cc1OC
  . | -2.9%
> CC(C)C(Cl)=NOC(=O)Nc1ccc(F)cc1
  i | -13.2%
> Cc1nn(-c2ccccc2)c(C)c1/C=N/NC(=O)c1cc(C23CC4CC(CC(C4)C2)C3)[nH]n1
  -5.6% | ?
> COc1ccc(CCNC(=O)CN2C(=O)NC(Cc3c[nH]c4ccccc34)C2=O)cc1 (stereo not drawn)
  i | -10.4%
> CN(C(=O)COC(=O)CSc1ccc([N+](=O)[O-])cc1)c1ccccc1
  i | -18.5%
> CCc1nc(CNC(=O)C2CCC(=O)N(CCc3cccc(F)c3)C2)no1 (stereo not drawn)
  i | -7.2%

(more compounds)
Values run as follows: VACV mCherry inh | Vaccinia Venus
> Cc1ccc(C)c(OCCCCCn2ccnc2)c1
  -20.2% | -19.8%
> COc1ccc(CNC(=O)c2cc(-c3ccc(Cl)cc3)n[nH]2)cc1
  -3.6% | -11.1%
> O=C(O)C1C2OC(C(Br)C2Br)C1C(=O)O (stereo not drawn)
  i | -3.1%
> O=C(O)c1ccc(N=NN2CCCC2)cc1
  -11.6% | 3.7%
> COC(=O)[C@]12CCCCC=C1N(Cc1ccc(Cl)cc1Cl)C(=O)[C@H](CC(=O)NCc1cccc(C(F)(F)F)c1)C2
  21.6% | 1.3%
> O=C(NCc1ccc(F)cc1)c1cnc(N2CCOCC2)c2ccccc12
  -15.9% | -16.8%
> Nc1ncnc2c1ncn2[C@@H]1O[C@H](C(=O)NCc2ccc(OC(F)(F)F)cc2)[C@@H](O)[C@H]1O
  31.5%[activator] | 5.9%
> Cc1cc(=O)oc(C)c1C(=O)N1CCc2c([nH]c3ccccc23)C1C(C)C (stereo not drawn)
  ? | -18.2%
> O=C(N/N=C/c1ccccn1)c1ccc(NC(=O)c2ccccc2Cl)cc1
  -27.7% | -1.4%
> O=C(Nc1sc2c(c1C(=O)O)CCCC2)c1ccc(F)cc1
  -0.7% | -15.7%

New compounds follow.
Values run as follows: VACV mCherry inh | Vaccinia Venus
> CC(=O)Nc1ccc(C(=O)N/N=C/C2CC3C=CC2C3)cc1 (stereo not drawn)
  i | -0.7%
> O=C1COc2ccc(C(=O)COC(=O)Cc3ccc(F)cc3)cc2N1
  -24.5% | -4.7%
> CCOc1ccc(N(C(C)C(=O)N/N=C(\C)c2cccc(NC(=O)c3ccccc3)c2)S(C)(=O)=O)cc1 (stereo not drawn)
  ? | -21.4%
> O=C(Cn1cc2c(n1)CCCC2)N1CCCC1
  -10.5% | -1.8%
> COc1ccc(NC(=O)Cn2nnc3sc4c(c3c2=O)CCCC4)cc1
  -3.4% | -1.5%
> c1ccc2sc(NC3=NCCN3)nc2c1
  i | -11.4%
> COc1ccc(C(C)C)cc1S(=O)(=O)Nc1ccccn1
  i | -7.4%
> C#CCN(C[C@@H]1[C@@H](OC(=O)NC2CC2)[C@@H](OC(=O)NC2CC2)Cn2c(=O)n(CCCCCC)c(=O)n21)S(=O)(=O)c1ccc(C)cc1
  i | ?
> CCCSc1nc(N)nc2c1ncn2C1OC(CO)C(O)C1O (stereo not drawn)
  i | -13.8%
> COc1cc(CN(C)c2ccc(S(=O)(=O)N3CCCC3)cn2)ccc1OC(F)F
  -18.8% | -17.2%

(cont.)
Values run as follows: VACV mCherry inh | Vaccinia Venus
> Cc1ccc(C)n1-c1cc(S(=O)(=O)N2CCOCC2)ccc1N1CCCC1
  -4.5% | -5.0%
> CCOC(=O)NNC(=O)c1ccc(Cl)cc1
  . | -15.6%
> CCN(CC)S(=O)(=O)c1ccc(NC(=O)c2ccc(CN3CCOCC3)cc2)cc1
  ? | ?
> CCC1(CC)C(=O)Nc2ccccc21
  9.5% | 0.2%
> O=C(Nc1ccc2c(c1)OCCO2)C1C(=O)Nc2ccccc2C(=O)N1C1CCCCC1 (stereo not drawn)
  -20.6% | -11.5%
> O=C(Nc1ncccn1)C1c2ccccc2Oc2ccccc21
  -14.4% | -5.4%
> O=C(c1cccc(Cn2cccn2)c1)N1CCOc2c(cc(-c3csc4ccccc34)cc2OC2CCOC2)C1 (stereo not drawn)
  ? | ?
> N#Cc1ccc(C(=O)Nc2cccc3ccccc23)c(F)c1
  -12.3% | -0.6%
